AF4-AF9 inh = blocks AF4 peptide binding to human AF9. inhibition, % at 10 µM. P42568. AlphaScreen, biotin-AF4 peptide binding to FLAG-AF9. 350,000 compounds, 0.47% hits;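 active = every replicate reaching a set inhibition limit, whatever the replicate mean, cut at about 25% in these data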;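 also: 0% = plate neutral control median and 100% = total signal loss; the record names both 10 and 1 µM as test concentration; the first replicate is given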
Target sequence (P42568 whole entry, looked up): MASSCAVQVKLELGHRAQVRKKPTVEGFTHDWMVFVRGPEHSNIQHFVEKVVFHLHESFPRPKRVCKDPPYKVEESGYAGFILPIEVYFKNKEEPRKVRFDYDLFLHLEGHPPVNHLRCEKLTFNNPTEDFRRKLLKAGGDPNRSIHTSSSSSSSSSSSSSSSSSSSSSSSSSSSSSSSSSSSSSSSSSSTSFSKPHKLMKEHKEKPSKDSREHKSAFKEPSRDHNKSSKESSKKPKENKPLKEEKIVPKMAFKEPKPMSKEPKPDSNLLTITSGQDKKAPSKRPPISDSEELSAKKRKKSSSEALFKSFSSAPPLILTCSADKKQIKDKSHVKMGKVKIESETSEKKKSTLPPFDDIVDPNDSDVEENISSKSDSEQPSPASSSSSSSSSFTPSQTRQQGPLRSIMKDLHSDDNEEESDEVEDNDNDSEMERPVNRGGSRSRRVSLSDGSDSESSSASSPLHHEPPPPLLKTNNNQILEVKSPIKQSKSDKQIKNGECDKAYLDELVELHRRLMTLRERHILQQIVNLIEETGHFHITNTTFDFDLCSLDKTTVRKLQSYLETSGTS
Active calls of the source: *; & = joins results of further samples.

SMILES	AF4-AF9 inh
COc1ccc(CN(C)C[C@@H]2Oc3ccc(NC(=O)Nc4ccccc4)cc3C(=O)N([C@H](C)CO)C[C@@H]2C)cc1	-5.3
CC1=C(C(=O)N(C(C)C)C(C)C)CC(CC(=O)NCCCN(C)C)C(=O)N1CCC1=CCCCC1 (centres undefined)	0.3
C[C@@H](NC(=O)C[C@H]1C[C@@H]2c3cc(NC(=O)CN(C)C)ccc3O[C@@H]2[C@H](CO)O1)c1ccccc1	0.2
C[C@H](CO)N1C[C@H](C)[C@H](CN(C)S(=O)(=O)c2ccc(Cl)cc2)Oc2ccc(NC(=O)Nc3ccc(F)cc3)cc2CC1=O	1.3
Cc1ccc(S(=O)(=O)N(C)C[C@@H]2OCCCC[C@@H](C)Oc3ccc(NC(=O)NC4CCCCC4)cc3C(=O)N([C@H](C)CO)C[C@@H]2C)cc1	-3.1
C[C@H](CO)N1C[C@H](C)[C@@H](CN(C)S(=O)(=O)c2cccc(F)c2)Oc2ncc(-c3cccc(C(=O)N(C)C)c3)cc2C1=O	-1.5
CO[C@@H]1CN(C)C(=O)c2cc(NC(=O)c3ccc4c(c3)OCO4)ccc2OC[C@H](C)NC[C@@H]1C	-0.6
CCCC#Cc1cnc2c(c1)C(=O)N([C@H](C)CO)C[C@H](C)[C@H](CN(C)C(=O)C1CCC1)O2	-3.3
CC(C)NC(=O)Nc1ccc2c(c1)C(=O)N([C@H](C)CO)C[C@@H](C)[C@@H](CN(C)Cc1ccc(C(F)(F)F)cc1)O2	0.5
CC(=O)N1CCCCN2[C@H](C1)[C@H](c1ccc(-c3ccc(C)cc3)cc1)[C@@H]2CO	-0.7
CCCN1[C@H](C(=O)NCCCN(C)C)[C@@H](CO)[C@@H]2Cn3c(ccc(C4=CCCCC4)c3=O)[C@@H]21	1.3
Cc1noc(C)c1NC(=O)Nc1ccc2c(c1)C(=O)N([C@@H](C)CO)C[C@H](C)[C@@H](CN(C)Cc1ccc(C(=O)Nc3ccccc3N)cc1)O2	0.8
O=C(C[C@H]1CC[C@H]2[C@@H](COC[C@H](O)CN2C(=O)Nc2ccc(Cl)c(Cl)c2)O1)NCc1ccc(F)cc1	1.0
c1ccc(Cc2c(C3CCCCC3)nc3c4ccccc4ccn23)cc1	2.0
CC(C)NC(=O)N1C[C@H]2[C@@H](c3ccccc31)[C@@H](CO)N2C(=O)c1ccncc1	-1.6
C[C@H](CO)N1C[C@H](C)[C@@H](CN(C)C(=O)Nc2ccccc2F)OCc2cn(nn2)CCCC1=O	-0.8&-1.0
Cc1ccc(S(=O)(=O)N2CC[C@H]3[C@@H](CO)N(C)c4ccc(-c5ccc(C#N)cc5)cc4[C@H]32)cc1	-0.9
O=C(N[C@@H]1CC[C@H](CCNS(=O)(=O)c2ccccc2)O[C@@H]1CO)c1cccc(F)c1	0.0
O=C(NC(c1ccc(F)cc1)c1ccc2ccccc2n1)C1CCN(Cc2cccc(C(F)(F)F)c2)CC1 (centres undefined)	4.0
CN(C)[C@H]1CCN([C@@H]2CS(=O)(=O)N[C@H]2COCc2ccccc2)C1	-0.4
COc1ccccc1-c1ccc([C@@H]2[C@H](C#N)N[C@H]2CO)cc1	-1.8
CCCNC(=O)C1(C)CCN(C(=O)c2c(F)ccc(C)c2F)C1 (centres undefined)	-1.6
CC(=O)N[C@@H]1CC[C@@H](CCNC(=O)C2CCCC2)O[C@@H]1CO	2.5
COc1cccc(CN(C)C[C@H]2OCc3cn(nn3)CCCC(=O)N([C@@H](C)CO)C[C@H]2C)c1	-0.8
CSc1ccc(CN2CCC(C)(Oc3cccc(Cl)c3)C2)cc1 (centres undefined)	2.4
C[C@@H]1CN([C@@H](C)CO)C(=O)Cc2cc(NC(=O)Cc3cn(C)c4ccccc34)ccc2O[C@@H]1CN(C)S(=O)(=O)c1ccccc1	-1.0
Cc1cccc(S(=O)(=O)N2C[C@H](O)COC[C@H]3O[C@@H](CC(=O)NCCCN4CCOCC4)CC[C@@H]32)c1	-0.2
CCCNC(=O)[C@H]1[C@H](CO)[C@H]2Cn3c(ccc(-c4cccc(F)c4)c3=O)[C@@H]1N2C(=O)CC	1.4
O=C(C[C@H]1CC[C@@H]2[C@H](COC[C@@H](O)CN2S(=O)(=O)c2ccc(Oc3ccccc3)cc2)O1)Nc1ccccc1	5.7
O=C(C[C@@H]1C[C@H]2c3cc(NC(=O)Nc4ccc(C(F)(F)F)cc4)ccc3O[C@H]2[C@H](CO)O1)NC1CCCCC1	5.1
CNC[C@@H]1Oc2c(NS(=O)(=O)c3ccc(OC)cc3)cccc2C(=O)N([C@H](C)CO)C[C@@H]1C	-3.9
C/C=C/[C@@H](CCn1cc([C@H](O)c2ccccc2)nn1)[Si](C)(C)c1ccc(OC)cc1	-2.0
CC(C)C[C@@H]1COc2cc(N3CCCC3)ccc2S(=O)(=O)N1	-0.8
CCCC(=O)Nc1ccc2c(c1)C(=O)N(C)C[C@H](OC)[C@@H](C)CN(C(=O)C1CCCC1)[C@@H](C)CO2	-2.1
COc1ccc(-c2nc3cc(C)c(Br)c(C)n3c2CC2CCCCC2)cc1OC	1.4
C[C@@H]1CN([C@H](C)CO)C(=O)c2cc(C3=CCCC3)cnc2O[C@H]1CN(C)C(=O)Nc1ccc(C(F)(F)F)cc1	-0.3
CCOC(=O)[C@]12CCC=C1N(Cc1ccc(Cl)cc1Cl)C(=O)[C@H](CC(=O)N1CCCC1)C2	1.1
C[C@H]1CN([C@@H](C)CO)C(=O)Cc2cc(NS(=O)(=O)c3ccc(F)cc3)ccc2O[C@@H]1CN(C)S(=O)(=O)c1cn(C)cn1	-4.5
C[C@@H]1CN([C@@H](C)CO)C(=O)c2cc(C#CC3CCCCC3)cnc2O[C@@H]1CN(C)C(=O)C1CCCCC1	9.1
CO[C@@H]1CC[C@H]2CCOc3ccc(C#N)cc3C(=O)N(C)[C@H](C)C(=O)N(C)C[C@H]1O2	1.2

3 neighbouring entries from above, for reference:
SMILES	AF4-AF9 inh
COc1ccc(-c2nc3cc(C)c(Br)c(C)n3c2CC2CCCCC2)cc1OC	1.4
C[C@@H]1CN([C@H](C)CO)C(=O)c2cc(C3=CCCC3)cnc2O[C@H]1CN(C)C(=O)Nc1ccc(C(F)(F)F)cc1	-0.3
CCOC(=O)[C@]12CCC=C1N(Cc1ccc(Cl)cc1Cl)C(=O)[C@H](CC(=O)N1CCCC1)C2	1.1

Continued.
SMILES	AF4-AF9 inh
C[C@@H]1CCCCO[C@H](CN(C)S(=O)(=O)c2cn(C)cn2)[C@@H](C)CN([C@H](C)CO)C(=O)c2cc(NS(=O)(=O)c3ccc(F)cc3)ccc2O1	-1.2
C[C@@H]1CCCCO[C@@H](CN(C)S(=O)(=O)c2ccccc2)[C@@H](C)CN([C@@H](C)CO)C(=O)c2cc(NC(=O)CCCN(C)C)ccc2O1	-4.1
CC(C)C#Cc1cnc2c(c1)C(=O)N([C@H](C)CO)C[C@H](C)[C@H](CN(C)C(=O)CN1CCOCC1)O2	-5.4
CCC(=O)Nc1ccc2c(c1)C(=O)N(C)[C@@H]1CC[C@H](CC(=O)N3CCc4ccccc4C3)O[C@@H]1CO2	-2.4
C/C=C/c1ccc([C@@H]2[C@@H](CNC(=O)CC)N(C(=O)CC)[C@H]2CO)cc1	-0.8
Cc1ccc(NC(=O)[C@H](Cc2ccccc2)NC(=O)CC[C@H]2O[C@@H](n3ccc(=O)[nH]c3=O)[C@H](O)[C@@H]2O)cc1C	-0.8
CO[C@H]1CN(C)C(=O)c2cccc(C#N)c2OCC[C@H]2CC[C@@H](OC)[C@H](CN(C)C(=O)[C@@H]1C)O2	2.3
CN1C(=O)c2cc(NC(=O)c3cnccn3)ccc2OC[C@H]2O[C@H](CC(=O)NCC3CCCCC3)CC[C@@H]21	0.5
O=C(C=Cc1ccccc1)c1cccs1	4.2
O=C([C@@H]1[C@@H](CO)[C@@H]2Cn3c(cccc3=O)[C@H]1N2C(=O)CC1CC1)N1CCc2ccccc2C1	-11
CO[C@@H]1CN(C)C(=O)c2cc(NC(=O)Nc3ccccc3)ccc2OC[C@@H](C)NC[C@@H]1C	1.6
O=C(Nc1ccc2c(c1)OCO2)N[C@@H]1CC[C@@H](CCNC(=O)C2CCCCC2)O[C@H]1CO	-7.0
O=C(C[C@@H]1C[C@H]2c3cc(NC(=O)c4cccnc4)ccc3O[C@H]2[C@H](CO)O1)NC1CCCCC1	-2.9
Cc1ccc(S(=O)(=O)Nc2cccc3c2O[C@@H](CN(C)Cc2ccncc2)[C@H](C)CN([C@H](C)CO)C3=O)cc1	1.2
COc1ccc2c(CN(C)Cc3ccccc3)cc(=O)oc2c1	-13
CCNC(=O)[C@H]1[C@H](CO)[C@H]2Cn3c(ccc(-c4cccnc4)c3=O)[C@H]2N1Cc1ccc2c(c1)OCO2	5.8
COC(=O)[C@H]1[C@H](CO)[C@H]2Cn3c(ccc(-c4ccccc4)c3=O)[C@H]2N1Cc1ccccn1	-17
COc1ccc(S(=O)(=O)Nc2ccc3c(c2)CC(=O)N([C@H](C)CO)C[C@@H](C)[C@@H](CN(C)Cc2ccc(C(=O)Nc4ccccc4N)cc2)O3)cc1	-2.1
O=C(c1cccnc1)N1C[C@@H]2N[C@H](C1)C2c1ccc(-c2ccccc2)cc1 (some centres undefined)	-3.7
C[C@@H]1CN([C@H](C)CO)C(=O)c2cc(-c3ccccc3F)cnc2O[C@H]1CN(C)Cc1ccc(F)cc1	-1.5
COc1ccc(S(=O)(=O)Nc2ccc3c(c2)C(=O)N([C@@H](C)CO)C[C@H](C)[C@H](CN(C)C(=O)c2ccccc2)OCCCC[C@@H](C)O3)cc1	1.2
O=C(c1cnccn1)N1CC(=O)N2[C@H](CO)[C@@H](c3ccc(C#CC4CCCCC4)cc3)[C@@H]2C1	9.6
O=C(NC1CCCC1)N1CCCCN2[C@H](C1)[C@@H](c1ccc(/C=C/c3ccccc3)cc1)[C@@H]2CO	8.6
C[C@@H]1CN([C@@H](C)CO)C(=O)c2cc(NC(=O)Nc3cccc4ccccc34)ccc2O[C@@H]1CN(C)C(=O)Nc1ccc(C(F)(F)F)cc1	2.2
C[C@@H]1CN([C@H](C)CO)S(=O)(=O)c2ccc(-c3ccc(F)cc3)cc2O[C@@H]1CN(C)S(C)(=O)=O	-0.5
CN(C)C(=O)c1cccc(-c2ccc([C@@H]3[C@H]4CN(C(=O)C5CCCC5)CCCCN4[C@H]3CO)cc2)c1	-1.9
CO[C@H]1CN(C)C(=O)c2ccc(NC(=O)C3CC3)cc2OC[C@@H](C)N(CC2CC2)C[C@H]1C	-2.2
O=C(Nc1ccccc1)c1cccc2c(-c3cccnc3)coc12	1.4
COc1ccc2c3c(n(C)c2c1)[C@@H](CO)N(Cc1cccnc1)CC31CCN(C(=O)NC(C)C)CC1	-4.0
C[C@@H]1CN([C@@H](C)CO)C(=O)c2cc(C#CC3CCCCC3)cnc2O[C@@H]1CN(C)Cc1cncnc1	-0.7

Laid out differently: results already given.
O=C(NC1CCCC1)N1CCCCN2[C@H](C1)[C@@H](c1ccc(/C=C/c3ccccc3)cc1)[C@@H]2CO
- AF4-AF9 inh: 8.6
C[C@@H]1CN([C@@H](C)CO)C(=O)c2cc(NC(=O)Nc3cccc4ccccc34)ccc2O[C@@H]1CN(C)C(=O)Nc1ccc(C(F)(F)F)cc1
- AF4-AF9 inh: 2.2
C[C@@H]1CN([C@H](C)CO)S(=O)(=O)c2ccc(-c3ccc(F)cc3)cc2O[C@@H]1CN(C)S(C)(=O)=O
- AF4-AF9 inh: -0.5

(further entries)
SMILES	AF4-AF9 inh
CCC(=O)N(C)C[C@H]1Oc2ncc(C#C[C@H](C)O)cc2C(=O)N([C@@H](C)CO)C[C@@H]1C	-3.9
Cc1noc(C)c1S(=O)(=O)Nc1ccc2c(c1)C(=O)N([C@H](C)CO)C[C@@H](C)[C@H](CN(C)S(=O)(=O)c1ccc(F)cc1)O2	-0.9
CO[C@H]1CN(C)C(=O)c2ccc(NC(=O)Nc3cccc(F)c3)cc2OC[C@@H](C)N(C(=O)Nc2c(C)noc2C)C[C@H]1C	3.3
Cc1ccc(S(=O)(=O)N(C)C[C@H]2OCCCC[C@@H](C)Oc3ccc(NS(=O)(=O)c4cccs4)cc3C(=O)N([C@@H](C)CO)C[C@H]2C)cc1	-0.6
COCC#Cc1ccc([C@H]2[C@@H](CO)N3CCCCN(C(=O)NC4CCCC4)C[C@H]23)cc1	-1.8
CCC(=O)N1CC(=O)N2[C@H](CO)[C@@H](c3ccc(-c4ccc(C#N)cc4)cc3)[C@@H]2C1	-2.2
CCC(=O)N1CC[C@@H]2[C@H](CO)Nc3ccc(-c4ccc(F)cc4)cc3[C@@H]21	-6.6
CNC[C@@H]1Oc2ccc(NC(=O)Nc3cccc4ccccc34)cc2CC(=O)N([C@@H](C)CO)C[C@@H]1C	-0.7
COc1ccc(S(=O)(=O)Nc2ccc3c(c2)C(=O)N([C@H](C)CO)C[C@H](C)[C@H](CN(C)C(=O)Nc2ccc(F)cc2)OCCCC[C@@H](C)O3)cc1	-0.8&-0.1
COc1cccc(C#Cc2cnc3c(c2)C(=O)N([C@H](C)CO)C[C@H](C)[C@H](CN(C)C(=O)C2CCCCC2)O3)c1	3.1
C[C@@H]1CN([C@@H](C)CO)C(=O)c2cccc(NC(=O)C3CC3)c2O[C@@H]1CN(C)Cc1ccccc1	-1.4
C[C@H]1CN([C@@H](C)CO)C(=O)Cc2cc(NC(=O)Nc3ccc(F)cc3)ccc2O[C@H]1CN(C)Cc1ccc(C(=O)O)cc1	-2.7
Cc1noc(C)c1NC(=O)N(C)C[C@H]1Oc2c(NC(=O)Nc3cccc4ccccc34)cccc2C(=O)N([C@H](C)CO)C[C@H]1C	1.0
O=S(=O)(c1ccccc1)N1CCCCN2[C@H](CO)[C@H](c3ccc(C#Cc4ccccc4)cc3)[C@H]2C1	-3.7
Cc1ccc(S(=O)(=O)N2C[C@@H](O)COC[C@@H]3O[C@H](CC(=O)NCCN4CCCCC4)CC[C@H]32)cc1	-2.5

Screening data as filed in PubChem.

A portion of the library. The share of hits here may be higher or lower than overall.
